KCNQ2 inh: KCNQ2 potassium channel inhibitors, primary screen, cell-based, CHO-K1, FluxOR thallium flux, B-score (AID 2156). 310,000 tested, 1.1% active. B-score at 10 µM. O88943. 20 min; active compounds read low; only compounds with negative scores are shown here; some inactives read as strong as hits;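 active = fluorescence ratio B-score at most minus 3 library SDs, with starting brightness B-score within 2 library SDs, cut at about -5.5 in these data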
Target sequence (O88943 whole entry, looked up): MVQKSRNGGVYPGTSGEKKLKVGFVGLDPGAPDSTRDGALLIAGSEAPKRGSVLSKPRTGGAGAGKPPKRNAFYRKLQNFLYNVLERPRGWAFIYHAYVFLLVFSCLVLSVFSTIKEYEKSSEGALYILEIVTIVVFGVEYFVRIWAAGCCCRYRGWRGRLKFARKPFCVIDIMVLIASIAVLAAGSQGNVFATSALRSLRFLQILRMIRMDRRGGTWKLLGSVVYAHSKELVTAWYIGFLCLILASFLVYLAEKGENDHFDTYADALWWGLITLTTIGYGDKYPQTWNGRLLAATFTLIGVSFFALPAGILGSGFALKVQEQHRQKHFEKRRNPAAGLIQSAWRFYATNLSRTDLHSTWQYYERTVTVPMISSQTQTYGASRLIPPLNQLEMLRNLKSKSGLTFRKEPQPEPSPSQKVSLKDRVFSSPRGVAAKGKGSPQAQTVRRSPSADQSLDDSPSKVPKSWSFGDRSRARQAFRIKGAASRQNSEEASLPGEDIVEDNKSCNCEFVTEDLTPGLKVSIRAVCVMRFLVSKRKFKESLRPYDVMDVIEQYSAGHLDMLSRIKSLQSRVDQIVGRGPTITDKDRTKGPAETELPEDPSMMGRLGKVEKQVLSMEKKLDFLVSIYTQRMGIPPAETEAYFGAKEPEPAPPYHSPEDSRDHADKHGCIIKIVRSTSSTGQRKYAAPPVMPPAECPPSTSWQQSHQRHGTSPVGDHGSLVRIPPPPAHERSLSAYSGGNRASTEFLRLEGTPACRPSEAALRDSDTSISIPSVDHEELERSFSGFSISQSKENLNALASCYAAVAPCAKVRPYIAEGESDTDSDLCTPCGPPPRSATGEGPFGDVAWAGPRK
KCNQ2 inh baseline: also measured in KCNQ2 inh; calls as there; B-score; measured here: initial fluorescence intensity artifact check;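 brightness before thallium and not channel activity; 0 = typical well and far values either way flag optical interference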
* marks the source's active call; other numbers are inactive results; i = inactive; & = joins results of further samples. Some of the compounds tested, so the mix of outcomes need not match the whole.

SMILES	KCNQ2 inh	KCNQ2 inh baseline
CCN(CC)c1ccc(N)cc1S(=O)(=O)Nc1ccc(OC)cc1	i	0.41
Cc1ccc(C(=O)OCC(=O)NCCNC(=O)COC(=O)c2ccc(C)o2)o1	i	1.1
COc1cccc(NC(=O)c2ccc(CN3CCN(c4ccccc4)CC3)cc2)c1	i	-0.47
Cc1ccc2c(c1)C1CN(C)CCC1N2C(=O)c1cccc(S(=O)(=O)N(C)C)c1 (configuration not stated)	i	0.28
CCN(CCCNC(=O)C1CCC(=O)N1Cc1ccc(F)cc1)c1cccc(C)c1 (configuration not stated)	i	0.74
Fc1ccc(Nc2ccc3ccccc3n2)c(F)c1	i	0.58
CN(C)CCNC(=O)c1ccc(COc2ccc(Cl)cc2Cl)cc1	-7.6*	0.06*
COc1ccc(-c2nc(=S)c3c(n2Cc2cccnc2)CC(C)(C)OC3)cc1	i	2
N#Cc1ccc(-c2ccccc2)nc1SCC(=O)c1cccc(Cl)c1	i	0.4
CCCS(=O)(=O)c1c(S(=O)(=O)CCC)c2ccc(C(N)=O)cn2c1C(=O)c1ccc(OC)cc1	i	0.1
O=C(Nc1ccc(Cl)cc1)C1=Cc2ccccc2OC1	i	-0.14
O=c1cc(-c2ccccc2Cl)oc2c(Br)ccc(O)c12	i	-1.5
CN1CCN(C(=S)c2ccc([N+](=O)[O-])cc2)CC1	i	1.1
O=C(NCCCn1ccnc1)c1cn(Cc2ccc(F)cc2)nn1	i	3.1
O=C(C1=C[C@H](c2ccccc2)C[C@H](OCCCCO)O1)N1CCN(Cc2ccccc2)CC1	i	1.4
CCCSc1nc2c(c(=O)[nH]c(=O)n2C)n1CC(O)COc1ccccc1 (configuration not stated)	i	0.06
Cc1ccccc1NC(=O)CCNS(=O)(=O)c1ccc2c(c1)CCC(=O)N2	i	-0.28
CCCCOc1cccc(C(=O)Nc2ccc(N3CCN(CC)CC3)cc2)c1	i	1.1
Cc1ccc(S(=O)(=O)N2CCN(C(=S)NCc3ccc4c(c3)OCO4)CC2)cc1	i	0.05
COc1c(F)c(F)c(C(=O)O)c(Nc2ccc(C)cc2)c1F	i	0.03
CC1=CC(=C2C=CC(=O)C=C2)C=C(C)N1C	i	1.3
O=C(O/N=C1/CCSc2ccccc21)c1ccc(F)cc1	i	-0.01
O=C(O)C1Cc2ccccc2CN1S(=O)(=O)/C=C/c1ccccc1 (configuration not stated)	i	0.12
COc1ccccc1-c1cc2nc(C)c(CCC(=O)NC(C)CCc3ccco3)c(C)n2n1 (configuration not stated)	i	0.01
CCc1c(C(=O)N2CCOCC2)csc1C	i	-0.38
O=C(NCc1ccccc1)C(c1cccnc1)N(C(=O)c1ccccn1)c1ccccc1F (configuration not stated)	i	-1.5
O=C(COc1ccccc1)NCC(c1ccco1)N1CCN(c2ccccc2F)CC1 (configuration not stated)	-7*	2.1*
CSCCC(NC(=O)c1ccccc1Br)C(=O)NNC(=O)c1csc(N2CCOCC2)n1 (configuration not stated)	i	-0.43
C=CCNC(=O)/C(C#N)=C/c1cn(-c2ccccc2)nc1-c1cccs1	i	0.95
Clc1ccc(C2=CC(c3ccco3)n3ncnc3N2)cc1 (configuration not stated)	i	41
Cc1ccc(OCC(=O)Nc2c[nH]c(=O)[nH]c2=O)cc1C	i	-0.23
Cc1cc(/C=C2\Cc3ccccc3C2=O)c(C)n1-c1ccccc1	i	-1.1
CC(C)(C)NC(=O)C(c1ccco1)N(Cc1ccc(F)cc1)C(=O)c1snc(C(N)=O)c1N (configuration not stated)	i	0.05
COCCOC(=O)C1=C(C)NC(=O)NC1c1ccc(-c2cc(Cl)ccc2Cl)o1 (configuration not stated)	i	-1.6
O=C(CN(Cc1ccccc1Cl)C(=O)c1csnn1)NCCc1ccccc1	i	1.8
COc1cccc(CNC(=O)c2ccc(NC3=NC4CS(=O)(=O)CC4S3)cc2)c1 (configuration not stated)	i	-0.05
Cc1c(CNCc2cccs2)c(C(=O)O)c(C)n1Cc1ccccc1	i	0.04
COc1cccc(OC)c1NC(=O)Cc1nn(C)c(=O)c2ccccc12	i	1.4
O=C(N/N=C/C(Br)=C\c1ccccc1)c1n[nH]c2c1CCC2	i	-0.58
COc1ccc(CN(CC(=O)NCc2ccc(F)cc2)C(=O)CCC(=O)Nc2cc(C)ccn2)cc1	i	-0.09
NC(=O)c1nsc(C(=O)N(c2cccc(F)c2)C(C(=O)NCC2CCCO2)c2ccc3ncccc3c2)c1N (configuration not stated)	i	-0.34
c1ccc2[nH]c(CSc3nc4ccccc4o3)nc2c1	i	-1.9
CCOC(=O)C1CCN(C(=O)COc2ccc([N+](=O)[O-])cc2)CC1	i	2.5
CC(=O)Nc1nnc(CSCc2ccccc2F)s1	i	2
O=c1cc(-c2ccc(O)c(-c3c(O)cc(O)c4c(=O)cc(-c5ccc(O)cc5)oc34)c2)oc2cc(O)cc(O)c12	i	-1.1
FC(F)(F)c1ccc(CN2C[C@@H]3C(c4ccccc4)C4(c5cccnc5)CC3(C4)[C@H]2c2ccccc2)cc1 (some centres not stated)	i	0.01
Cc1ccc(NC(=O)C2CCCN(C(=O)c3ccc(Cl)cc3)C2)cc1C (configuration not stated)	i	0.07
CCCCCCC(=O)N1CCCC(c2nc(-c3cccc(OC)c3)no2)C1 (configuration not stated)	i	-0.18
CC1C(=O)N(Cc2ccc([N+](=O)[O-])cc2)c2ccccc2N1C(=O)c1c(F)cccc1F (configuration not stated)	i	-0.77
Cc1ccc(Cn2cnc3sc4c(c3c2=O)CCC4)c(C)c1	i	-0.75

Following part
SMILES	KCNQ2 inh	KCNQ2 inh baseline
COc1ccccc1CNC(=O)/C(C#N)=C/c1ccc(OC)c(OC)c1OC	i	-1.4
CCOc1ccccc1CNC(=O)CCCc1cn(C)c2ccccc12	i	-1.2
C[C@H]1C(=O)N(C)CCN1C(=O)c1ccccc1OC1CCN(S(C)(=O)=O)CC1	i	-0.43
COCCN(Cc1ccccc1)C(=O)c1c(C)nn(-c2ccccc2)c1C	i	0.02
NC(=O)CSc1nnc(-c2ccncc2)o1	i	0.43
CCSc1nc(O)cc(=O)n1CC	i	-0.33
Fc1ccc(C(Nc2ccccn2)c2c[nH]c3ccccc23)cc1 (configuration not stated)	i	0.67
CCOC(=O)c1ccc(N2C(=O)c3n[nH]c(C)c3C2c2ccc(OC)cc2)cc1 (configuration not stated)	i	0.26
Cc1nnc2sc(SCc3ccccc3Cl)nn2c1=O	i	-3.7
CCOC(=O)N1CCN(Cc2cn[nH]c2-c2cc3ccccc3o2)CC1	i	-1.6
N[C@@H](Cc1ccccc1)c1nnc(SC/C=C/c2ccccc2)o1	i	0.11
Cc1cc2c(cc1C)C(c1ccccc1F)CC(=O)N2 (configuration not stated)	i	-0.98
CCOc1ccc(S(=O)(=O)N2CCOCC2)cc1NC(=O)CN1C(=O)NC2(CCCC2)C1=O	i	0.07
O=C(O)Cc1sc(-c2ccc(C(=O)O)cc2)nc1-c1ccccc1	i	0.27
COc1cc2c(cc1OC)C(C)N(S(=O)(=O)c1ccc(C)cc1)CC2 (configuration not stated)	i	-0.73
Cc1ccccc1C(=O)Nc1ccc(N2CCCCCC2)cc1	i	1.9
CC1CC(C)CN(CCCNC(=O)Cn2cccc2C(=O)c2ccccc2)C1 (configuration not stated)	i	2.4
O=C(/C=C/c1ccco1)Nc1cccc(C(=O)Nc2ccccc2C(=O)O)c1	i	-1.2
O=C(Nc1ccc2oc(-c3ccncc3)nc2c1)c1ccc(F)cc1	i	-2.1
CN(Cc1cnccn1)C(=O)CC1C(=O)NCCN1Cc1cccc(Oc2ccccc2)c1 (configuration not stated)	i	-0.43

Quoted from the listing, 20 compounds:
SMILES	KCNQ2 inh	KCNQ2 inh baseline
COc1ccccc1CNC(=O)/C(C#N)=C/c1ccc(OC)c(OC)c1OC	i	-1.4
CCOc1ccccc1CNC(=O)CCCc1cn(C)c2ccccc12	i	-1.2
C[C@H]1C(=O)N(C)CCN1C(=O)c1ccccc1OC1CCN(S(C)(=O)=O)CC1	i	-0.43
COCCN(Cc1ccccc1)C(=O)c1c(C)nn(-c2ccccc2)c1C	i	0.02
NC(=O)CSc1nnc(-c2ccncc2)o1	i	0.43
CCSc1nc(O)cc(=O)n1CC	i	-0.33
Fc1ccc(C(Nc2ccccn2)c2c[nH]c3ccccc23)cc1 (configuration not stated)	i	0.67
CCOC(=O)c1ccc(N2C(=O)c3n[nH]c(C)c3C2c2ccc(OC)cc2)cc1 (configuration not stated)	i	0.26
Cc1nnc2sc(SCc3ccccc3Cl)nn2c1=O	i	-3.7
CCOC(=O)N1CCN(Cc2cn[nH]c2-c2cc3ccccc3o2)CC1	i	-1.6
N[C@@H](Cc1ccccc1)c1nnc(SC/C=C/c2ccccc2)o1	i	0.11
Cc1cc2c(cc1C)C(c1ccccc1F)CC(=O)N2 (configuration not stated)	i	-0.98
CCOc1ccc(S(=O)(=O)N2CCOCC2)cc1NC(=O)CN1C(=O)NC2(CCCC2)C1=O	i	0.07
O=C(O)Cc1sc(-c2ccc(C(=O)O)cc2)nc1-c1ccccc1	i	0.27
COc1cc2c(cc1OC)C(C)N(S(=O)(=O)c1ccc(C)cc1)CC2 (configuration not stated)	i	-0.73
Cc1ccccc1C(=O)Nc1ccc(N2CCCCCC2)cc1	i	1.9
CC1CC(C)CN(CCCNC(=O)Cn2cccc2C(=O)c2ccccc2)C1 (configuration not stated)	i	2.4
O=C(/C=C/c1ccco1)Nc1cccc(C(=O)Nc2ccccc2C(=O)O)c1	i	-1.2
O=C(Nc1ccc2oc(-c3ccncc3)nc2c1)c1ccc(F)cc1	i	-2.1
CN(Cc1cnccn1)C(=O)CC1C(=O)NCCN1Cc1cccc(Oc2ccccc2)c1 (configuration not stated)	i	-0.43

Next structures follow:
SMILES	KCNQ2 inh	KCNQ2 inh baseline
COc1ccc(C(=O)COC(=O)c2ccc3ccccc3n2)cc1	i	0.62
CCN(CCCNC(=O)C1CCC(=O)N1Cc1ccccc1Cl)c1cccc(C)c1 (configuration not stated)	i	0.39
Cc1c(Nc2nc3ccccc3nc2NS(=O)(=O)c2cccc(Cl)c2)c(=O)n(-c2ccccc2)n1C	i	0.95
Cc1ccc(S(=O)(=O)c2nc(-c3ccccc3)oc2NCCCN2CCOCC2)cc1	i	-0.72
O=S(=O)(c1ccccc1)N1N=C(c2ccccc2)CC1c1ccco1 (configuration not stated)	i	-1.3
COC(=O)NCC(C)OC(=O)Nc1cccc(Cl)c1 (configuration not stated)	i	1.7
COc1ccc(C2C=C(c3ccc(F)cc3)NC(=S)N2)cc1OC (configuration not stated)	i	-1
CN(Cc1nc(-c2cccc(Cl)c2)no1)C1CCOCC1	i	-1.3
CCOC(=O)N1CCN(CC(O)COc2ccccc2C(C)(C)C)CC1 (configuration not stated)	i	1.5
CCOC(=O)c1c(NC(=O)c2ccccc2Cl)sc2c1CCc1ccccc1-2	i	1.6

As entered above:
In KCNQ2 inh baseline, O=C(CN(Cc1ccccc1Cl)C(=O)c1csnn1)NCCc1ccccc1 is entered as 1.8
In KCNQ2 inh baseline, Cc1c(Nc2nc3ccccc3nc2NS(=O)(=O)c2cccc(Cl)c2)c(=O)n(-c2ccccc2)n1C is entered as 0.95

Following part
SMILES	KCNQ2 inh	KCNQ2 inh baseline
Cc1ccc(S(=O)(=O)N2CCOCC2)cc1C(=O)N1C(=O)c2cccc(N)c2C1=O	i	-1
CC(=O)Nc1ccc(NC(=O)CSC2=NS(=O)(=O)c3cc(Cl)ccc3N2)cc1	i	0.86
Cc1ccc(OCc2nc3ccccc3n2C)cc1	i	-0.83
N=C1SCC(=O)N1c1ncc(Cc2ccccc2Cl)s1	i	0.27
O=C(Cc1ccc(Cl)c(Cl)c1)Nc1ccc(S(=O)(=O)Nc2ncccn2)cc1	i	2.4
COc1ccc(N2C(=O)CCC2=O)cc1	i	0.75
O=C(NCCc1csc(-c2ccccc2)n1)c1c(F)cccc1F	i	0.43
CC(C)(C)CC(=O)NC(=S)NCc1ccccc1	i	0.87
CC1=C(C(=O)Nc2ccccc2)C(c2ccco2)C(C#N)=C(SCC(=O)Nc2cccc(C)c2C)N1 (configuration not stated)	i	-0.82
Cc1ccc(-c2nn3c(C)nnc3s2)cc1NC(=O)c1cccs1	i	-1.9
NS(=O)(=O)c1ccc(NC(=O)/C=C/c2cccc(Cl)c2)cc1	i	0.16
Cc1cccc2c(C(=O)O)c3c(nc12)CCCCC3	i	1.4
CCN1CCc2c(sc(NC(=O)c3ccc(S(=O)(=O)N(C)c4ccccc4)cc3)c2C(=O)NC)C1	i	1.7
CC(=O)NC1=NN(c2ccccc2)C(=O)C1	i	1.5
Cc1cccc(C)c1OCCCCc1c(C)n[nH]c1C	i	0.04
CC(N=C(NC#N)Nc1ccncc1)C(C)(C)C (configuration not stated)	i	-0.36&0.98
COc1ccc2sc3ccccc3c(=O)c2c1OC	i	-0.13
COc1ccc(OC)c(NC(=O)CCNS(=O)(=O)c2cccs2)c1	i	-1.6
CC(C)(C)n1ncc2c(=O)n(Cc3ccc(Cl)cc3)cnc21	i	0.35
O=C(NCc1cccs1)C(NS(=O)(=O)c1cccc2nsnc12)c1ccccc1 (configuration not stated)	i	-0.08
CC1S/C(=N/N=C2CCC(C(C)(C)C)CC2)NC1=O (configuration not stated)	i	-1.2
COc1ccc(C(=O)NNC(=O)CSc2nnnn2C)cc1	i	-0.01
Cc1cccc(CC2CC(=O)N(c3ccccc3)C2=O)c1 (configuration not stated)	i	0.12
O=C(Nc1ccn(Cc2ccc(Cl)cc2)n1)c1ccccc1	i	1.2
Cc1cc(C(=O)CSc2nc3ccccc3[nH]2)c(C)n1CC1CCCO1 (configuration not stated)	-5.6*	-0.24*
O=S(=O)(NCCC1=CCCCC1)c1cccc(Br)c1	i	1.8
CC(CN1CCOCC1)OC(=O)c1cccc(Br)c1 (configuration not stated)	i	0.78
COC(=O)C1=CN(CC2CCCO2)C=C(C(=O)OC)C1c1cc(OC)c(OC)c(OC)c1 (configuration not stated)	i	-0.82
CC(/C=C/c1ccco1)=N/NC(=O)CNc1ccccc1C	i	0.03
Cc1ccc(N(C(=O)CNC(=O)c2ccco2)C(C(=O)NC2CCCC2)c2cccnc2)cc1C (configuration not stated)	i	-0.38
O=C(O)c1ccc(Oc2cccc([N+](=O)[O-])c2)cc1C(=O)O	i	-1
O=C(C/C=N/OCc1ccc(Cl)cc1)c1cnc(-c2ccccc2)s1	i	-0.29

Assay outcomes (PubChem BioAssay)
